CtBP-E1A blk = blocks the CtBP interaction with E1A. AID 651724. AlphaScreen GST-E1A/His-CtBP binding, 1536-well; hits give low values; control for the full effect not named in the record. activity change, % (no concentration beside the values). hit rate 0.49% among 340,000; in the data active means activity change below about -65%; inconclusive means about -30% to -65%; inactive means above about -30%; also: % is scaled to controls: 0 for no effect and ±100 for the full control effect; compound concentration not given in the record
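GST-E1A and His-tagged CtBP (125 nM each as 5X stock) were preincubated with pin-transferred compound for 2 h at 37 °C in the dark, then glutathione donor and nickel acceptor beads were added for 1 h before AlphaScreen reading.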
TRPV1 potentiator = enhances activation of the human vanilloid receptor TRPV1; Q8NER1; TRPV1-expressing cells, Fluo-8 calcium influx, capsaicin EC20 potentiation; host cell line not named in the record; control for the full effect not named in the record; potentiation, % at 8.33 µM; hit rate 0.02% among 320,000; active means potentiation above 80%; inconclusive means 30% to 80%; inactive means below 30%; also: 0% is about no effect
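Fluo-8 calcium influx in TRPV1-expressing cells, kinetic read (ex 480/em 520 nm). Compound added and read 3 min for agonist activity, followed by capsaicin at EC20 final and 2 min further read for enhancement.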
TRPML1 blocker = inhibitors of human TRPML1 channel. TRPML1-inducible cells, Ca2+ dye fluorescence, FDSS; hits give low values; inhibition of EC80 agonist-evoked calcium signal. AID 624415. hit rate 0.02% among 390,000. activity change, negative = inhibition, % (test concentration not listed); in the data active means activity change below about -50%; inconclusive means about -30% to -50%; inactive means above about -30%;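 also: stimulus is agonist 54-4 at its EC80 concentration; % is scaled to controls: 0 for no effect and ±100 for the full control effect; compound concentration not given in the record; the text of the record puts the active cut at -80%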
Target sequence (Q9GZU1 whole entry, looked up): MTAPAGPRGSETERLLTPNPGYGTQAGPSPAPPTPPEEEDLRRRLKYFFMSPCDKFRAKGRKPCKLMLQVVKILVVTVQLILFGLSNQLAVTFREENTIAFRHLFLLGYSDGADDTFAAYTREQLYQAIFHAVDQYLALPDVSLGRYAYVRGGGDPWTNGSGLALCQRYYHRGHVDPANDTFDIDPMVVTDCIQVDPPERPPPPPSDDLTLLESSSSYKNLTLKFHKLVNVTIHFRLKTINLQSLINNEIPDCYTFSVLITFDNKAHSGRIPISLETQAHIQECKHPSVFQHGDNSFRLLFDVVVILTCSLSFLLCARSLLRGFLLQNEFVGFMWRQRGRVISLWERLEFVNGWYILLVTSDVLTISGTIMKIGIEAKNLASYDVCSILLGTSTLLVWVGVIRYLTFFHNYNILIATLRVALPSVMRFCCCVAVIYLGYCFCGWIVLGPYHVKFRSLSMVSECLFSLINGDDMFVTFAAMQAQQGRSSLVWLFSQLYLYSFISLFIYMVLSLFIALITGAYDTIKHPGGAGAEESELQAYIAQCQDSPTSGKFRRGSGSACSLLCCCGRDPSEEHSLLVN
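TRPML1-DL cells, Tet-induced overnight (~16 h, 37 °C) at 1,500 cells/well, were loaded with Ca8 no-wash dye plus quencher for 45-90 min at room temperature. Compounds were pinned during FDSS kinetic reading; agonist 54-4 at EC80 (4 uM final) then added.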
TRPML1 ag = agonists of human TRPML1 channel. Q9GZU1. TRPML1-expressing cells, Ca2+ dye fluorescence, FDSS; host cell line not named in the record; reference of the full effect not given here. activation, % (test concentration not listed). hit rate 0.12% among 410,000. AID 624414; in the data active = activation above about 50%; inconclusive = about 30% to 50%; inactive = below about 30%; also: 0% is about no effect; the text of the record puts the active cut at 80%
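Cells: TRPML1-DL, 1X Tet inducer, ~16 h at 37 degrees C/5% CO2. Dye: ABD Ca8 no-wash + quencher, 45-90 min RT. Read: 10 s baseline, compound add, 110 s agonist phase; 54-4 EC80 (4uM final), 110 s antagonist phase.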
D2 PAM = potentiates the human D2 dopamine receptor allosterically | hit rate 0.23% among 360,000 | potentiation, % (no concentration beside the values) | DiscoveRx D2 beta-arrestin cells, luminescence, 90 min; 100% = 57 uM dopamine signal; active = potentiation of 50% or more; inconclusive = 30% to 50%; inactive = 30% or less;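 also: compound concentration not given in the record; tested on top of an EC20 dose of dopamine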
Target sequence (P14416 whole entry, looked up): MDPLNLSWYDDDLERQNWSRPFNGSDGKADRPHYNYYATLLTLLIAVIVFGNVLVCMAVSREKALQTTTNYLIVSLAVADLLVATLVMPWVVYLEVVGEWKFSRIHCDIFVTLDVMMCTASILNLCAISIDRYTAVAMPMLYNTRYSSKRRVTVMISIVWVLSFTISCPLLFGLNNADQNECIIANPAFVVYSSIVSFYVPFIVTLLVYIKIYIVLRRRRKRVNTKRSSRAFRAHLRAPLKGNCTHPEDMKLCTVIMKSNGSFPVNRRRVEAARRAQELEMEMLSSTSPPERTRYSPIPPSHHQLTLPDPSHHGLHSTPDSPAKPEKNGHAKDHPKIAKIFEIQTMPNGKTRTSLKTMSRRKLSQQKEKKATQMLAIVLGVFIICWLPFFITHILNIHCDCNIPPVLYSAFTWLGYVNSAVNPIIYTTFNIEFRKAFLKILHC
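PathHunter D2 cells, attached overnight at 37 deg C, received compound in DMSO plus dopamine at EC20 (50 nM final) for 90 min at 37 deg C. Beta-arrestin recruitment was read as luminescence after 1 h with detection reagent at ambient temperature.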
Six1-Eya2 inh = inhibitors of human Six1/Eya2 interaction; activity change, % (concentration not given with the values); AlphaScreen GST-Six1/His-Eya2 binding, biochemical; hits give low values; control for the full effect not named in the record; Q15475+O00167; hit rate 0.56% among 360,000; in the data active = activity change below about -65%; inconclusive = about -30% to -65%; inactive = above about -30%; also: % is scaled to controls: 0 for no effect and ±100 for the full control effect
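Homogeneous AlphaScreen proximity assay pairing GST-Six1 with His-tagged Eya2 (added as 5X mix: 250 nM and 500 nM) in 50 mM Tris pH 8.0, 300 mM NaCl, 1 mM TCEP. Glutathione donor and nickel acceptor beads; 1 h, 37 °C, dark.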
* marks the source's active call; other numbers are inactive results; ? = inconclusive; nt = no result given; & = joins results of further samples. A portion of the library; rates above refer to the full screens.

SMILES	CtBP-E1A blk	TRPV1 potentiator	TRPML1 blocker	TRPML1 ag	D2 PAM	Six1-Eya2 inh
COc1ccc(C(=O)OC2CC[C@@]3(C)C4CCC5[C@]6(O)CC(O)[C@@]7(O)C(CN8CC(C)CCC8[C@@]7(C)O)[C@]6(O)C[C@@]53O[C@]24O)cc1OC (stereo partly drawn)	2	?	17	0.4	-1	-9
COc1ccc(N2CCN(CCc3ccncc3)CC2)cc1	1	9	9	-0.6	-14	-9
Cc1ccccc1NC(=O)COC(=O)c1cc(C)n(C2CC2)c1C	-1	-2	14	0.4	5	-6
COc1ccc(CCN)cc1O	2	nt	0	-0.7	-17	-4
O=C1C2CCCN2C(c2ccccc2)N1c1ccccn1 (stereo not drawn)	8	-2	0	-0.1	-20	-2
CCN1CCN(Cc2cc(Br)cc(OC)c2O)CC1	6	-14	-25	-0.3	-18	1
COC(=O)C1=C(c2ccc(C(C)=O)cc2)C[C@@H]2CC[C@H]1N2C(=O)NCc1ccco1	-1	5	10	-0.1	-10	-6
Cc1ccc(S(=O)(=O)N2Cc3cc(-c4cccc(F)c4)ccc3-n3nncc3C2)cc1	3	nt	nt	-0.5	6	3
Cc1ccc(-n2c(O)c(C=NCC3CCCO3)c(=O)[nH]c2=O)c(C)c1 (stereo not drawn)	9	-8	11	0.1	-2	-4
O=C1NC(=O)C(CCc2ccncc2)(Cc2ccc([N+](=O)[O-])cc2)C(=O)N1	-1	-1	21	0.0	-11	0
CCOC(=O)c1c(C)c(P(=S)(N2CCOCC2)N2CCOCC2)n(C)c1C	-1	-8	-4	-0.6	-9	0
COc1cccc(C2(O)CCN(CC(=O)Nc3nc(C)cs3)CC2)c1	-17	-2	42	3.4	-2	-2
O=C(NC(=S)N1CC1)c1ccccc1	-19	nt	-18	0.1	-4	3
CCC(=NCCc1ccccc1)c1c(O)n(C)c(=O)n(C)c1=O	nt	-19	-3	-1.0	-19	8
COc1ccc(CC(=O)N(CCN(C)C)CC2CCCN(Cc3ccccc3F)C2)cc1 (stereo not drawn)	-4	-5	-18	-0.1	-13	-5
CNC(=O)Oc1cccc2c1OC(C)(C)O2	-3	nt	0	0.1	0	6
CN1C2c3ccccc3C3C4c5ccccc5C(C31)C(C2[N+](=O)[O-])N4C (stereo not drawn)	nt	5	15	2.4	0	-8
CC1CN=C(NC(C)c2ccccc2)S1 (stereo not drawn)	nt	-2	4	-0.5	-3	4
c1cncc(CNCCc2c[nH]c3ccccc23)c1	3	0	3	-0.7	-4	0
CNC(=O)OCCc1n(C)cc[n+]1C	7	-8	-3	0.0	-3	28
CCOc1cc2c(cc1OCC)-n1cccc1C(c1ccc(OC)c(OC)c1)NC2 (stereo not drawn)	10	-1	nt	nt	-17	-27
CCCCCc1nc2ccccc2c(=O)n1-c1ccccc1[N+](=O)[O-]	nt	-7	-2	-0.1	1	-20
Clc1ccc(NC2=NCCCS2)cc1Cl	2	0	40	-0.7	-11	5
COC(C)(C)CCCC(C)C/C=C/C(C)=C/C(=O)OC(C)C (stereo not drawn)	-2	-6	16	-0.6	-1	-4
CC(=O)Nc1ccccc1OP1(=O)COc2ccccc2OC1	-1	6	53	6.0	13	6
CC(=O)OC1CCC2(C)C(CC(=O)C3C2CCC2(C)C(OC(C)=O)CCC32)C1 (stereo not drawn)	-4	nt	9	0.7	-2	15
CCc1c(C)nc(N)nc1N1N=C1SCC(N)=O	-8	6	20	-0.1	-4	2
COC(=O)C1=C(c2cc3ccccc3s2)C[C@@H]2CC[C@H]1N2C(=O)NCc1ccc(C(F)(F)F)cc1	-3	nt	38	1.9	-14	1
CC1CC(NC(=O)C2C3CCC(O3)C2C(=O)O)CC(C)(C)C1 (stereo not drawn)	-1	-18	23	0.7	-21	6
CNCC(O)c1cccc(OC(=O)c2ccccc2C)c1 (stereo not drawn)	-20	2	-4	1.1	6	10
O=[N+]([O-])c1ccc(C2[C@H]3C(c4ccccc4)=NC4(CCCCC4)N23)cc1 (stereo partly drawn)	-28	-8	39	4.6	-5	-9
COC(=O)C(O)(c1ccc(NC(=O)c2cccs2)cc1)C(F)(F)F (stereo not drawn)	nt	nt	-6	0.7	2	1
Cn1c(O)c(/C=N/c2ncccn2)c(=O)n(C)c1=O	2	4	30	-0.4	-23	0
C=CCn1c(O)c(/C(C)=N/N2CCCCCC2)c(=O)[nH]c1=O	2	7	-5	-0.7	0	2
COC(=O)C1=C(c2cc3ccccc3s2)C[C@@H]2CC[C@H]1N2C(=O)N1CCCC1	4	nt	23	-0.7	-50	-1
O=C(O)c1ccccc1NC(=O)N1C[C@H]2C[C@@H](C1)c1cccc(=O)n1C2	-7	8	nt	nt	-2	1
Cn1c(=O)oc(=O)c2ccccc21	-19	nt	-20	-0.4	-6	-7
O=c1c2ccccc2[nH]c(=S)n1-c1cccc(Cl)c1	-1	nt	11	-0.5	-8	-20
O=C1NC(=S)N(c2ccc(Cl)cc2)C(=O)/C1=C/N1CCN(C(=O)c2ccco2)CC1	0	0	-11	0.2	-13	0
O=c1[nH]c(=S)[nH]c(O)c1C(c1ccccn1)c1c(O)[nH]c(=S)[nH]c1=O	1	7	-1	-0.3	-3	-5
Cc1ccc(-n2c(O)c(C=NCc3ccccn3)c(=O)[nH]c2=S)cc1	-29	0	10	3.8	-9	-27
CN(C)C(=O)Oc1ccc(Cl)c2cccnc12	6	-4	-11	-1.1	-4	-1
COc1ccc(-n2nnnc2C(C2CC2)N2CCC(n3c(=O)[nH]c4ccccc43)CC2)cc1 (stereo not drawn)	-2	nt	8	0.5	23	-11
ClC(Cl)(Cl)c1ccccc1	-13	-9	28	0.5	1	5
COC(=O)C1=C(c2ccc(S(C)(=O)=O)cc2)C[C@@H]2CC[C@H]1N2C(=O)NC(C)C	1	nt	21	-1.0	0	1
N#Cc1ccccc1Cn1cc(C(=O)C2CC2)c2ccccc21	0	6	-7	6.2	5	-1
O=[N+]([O-])[N-][n+]1cnn(Cc2ccccc2)c1	-12	-3	-3	0.4	-3	14
Cc1cccc(N2C(=O)NC(=O)/C(=C\c3ccc(N4CCOCC4)cc3)C2=O)c1	6	13	-20	0.3	-11	0
CN(C)C(CNC(=O)Cc1ccc(Br)cc1)c1ccccc1 (stereo not drawn)	-7	-1	13	-0.3	-10	4
Cn1cccc1/C=C1/C(=O)NC(=S)N(Cc2ccc(F)cc2)C1=O	-19	-1	12	1.2	1	-23
(more compounds)
SMILES	CtBP-E1A blk	TRPV1 potentiator	TRPML1 blocker	TRPML1 ag	D2 PAM	Six1-Eya2 inh
CCN(CC)C(=O)N[C@H]1C[C@@H]2c3cccc4[nH]cc(c34)C[C@H]2N(C)C1	-6	12	-17	1.4	13	-8
Cc1cc(Cl)ccc1OCCCC(=O)NCc1cccs1	-14	-9	29	3.5	-3	25
O=c1cccc2n1C[C@@H]1C[C@@H]2CN(CC(O)c2ccc([N+](=O)[O-])cc2)C1 (stereo partly drawn)	5	16	-8	3.6	-6	2
CCC(=NCc1ccco1)c1c(O)n(-c2ccc(OC)cc2)c(=O)[nH]c1=O	-10	14	2	1.1	-35	-12
CC1CCCN(c2ccc(C(=O)N3CCC4(CC3)OCCO4)cc2[N+](=O)[O-])C1 (stereo not drawn)	1	-9	-3	-0.4	-6	-8
Cn1c(O)c(/C=C2/C=CC=N2)c(=O)[nH]c1=O	4	nt	7	0.3	-7	6
CN1CCCC(C(O)(c2ccccc2)c2ccccc2)C1 (stereo not drawn)	nt	3	5	-0.1	-21	4
Cc1ccc(-c2nc3ccccc3c(=O)n2-c2cccc(O)c2)cc1	-3	-5	-6	0.2	1	-5
CC(C)N1CCN(Cc2ccccc2C(F)(F)F)CC1CCO (stereo not drawn)	-1	13	-8	2.1	-14	3
O=C1NC(=S)NC(=O)C1=Cc1ccc(Br)s1	nt	-8	-9	0.1	-45	3

Overlap with the part before: 3 entries; new compounds follow.
SMILES	CtBP-E1A blk	TRPV1 potentiator	TRPML1 blocker	TRPML1 ag	D2 PAM	Six1-Eya2 inh
Cc1ccc(-c2nc3ccccc3c(=O)n2-c2cccc(O)c2)cc1	-3	-5	-6	0.2	1	-5
CC(C)N1CCN(Cc2ccccc2C(F)(F)F)CC1CCO (stereo not drawn)	-1	13	-8	2.1	-14	3
O=C1NC(=S)NC(=O)C1=Cc1ccc(Br)s1	nt	-8	-9	0.1	-45	3
Cn1cc(NC(=O)CCl)cn1	-8	-5	-3	-0.3	-1	-3
COC(=O)C1=C(c2ccccc2OCc2ccccc2)C[C@@H]2CC[C@H]1N2C(=O)NCc1cccc(F)c1	-3	-12	21	1.9	-12	-7
CC(Cc1ccccc1Sc1ccccc1O)N(C)C (stereo not drawn)	-14	-15	-3	0.8	-45	0
CCOC(=O)[C@]12Cc3c(cc(OC)c(OC)c3OC)[C@H]1N(Cc1ccccc1)C(=O)c1ccccc12	nt	nt	6	2.2&-0.5	-1	-5
CC1CN=C(NCc2ccncc2)S1 (stereo not drawn)	0	10	-2	0.3	24	-17
COCCn1cc(C(=O)N2CCC3(CC2)OCCO3)c2c3ccccc3n(C)c2c1=O	10	8	-7	0.6	4	2
COc1cc(/C=C2/C(=O)NC(=O)N(c3ccc(C)cc3)C2=O)cc(OC)c1OC	1	-8	-22	0.4	-5	4
CN1CCN(c2ccc([N+](=O)[O-])c(Sc3nncn3C)c2)CC1	-22	-7	1	2.3	-11	13
CCCCCN1C(=O)c2ccccc2[C@@]2(C(=O)OCC)Cc3cc(Cl)ccc3[C@@H]12	-1	nt	nt	1.2	nt	-4
Cc1ccsc1-c1nc(CSCC(=O)N2CCC3(CC2)OCCO3)c(C)o1	0	-17	5	-0.8	-12	0
O=C(Cc1c(Cl)cccc1Cl)N1CCN(Cc2ccccc2)CC1	-19	18	-12	-1.5	-13	-19
O=[N+]([O-])c1ccc(C[n+]2c(-c3ccccc3)cc(-c3ccccc3)cc2-c2ccccc2)cc1	-11	-17	2	-0.2	-18	-2
CC(=O)Nc1ccccc1C(=O)C(=O)Nc1cccc(C(=O)N2CCC3(CC2)OCCO3)c1	-23	-3	10	0.6	-8	5
Cc1ccc(NC(=O)[C@@H](NC(=O)N2C[C@H]3C[C@@H](C2)c2cccc(=O)n2C3)C(C)C)cc1	7	10	nt	nt	-1	-1
COC(=O)Cn1cc(C(=O)c2ccccc2F)c2ccccc21	-3	9	5	-0.2	-6	6
c1ccc2c(c1)-c1cccc3cccc-2c13	10	-4	4	1.2	0	107
Cc1cccc2nc(-c3ccccc3)c(-c3ccc(CN4CCC(n5c(=O)[nH]c6ccccc65)CC4)cc3)nc12	-8	nt	nt	-0.2	nt	-18
CCOc1ccc(-n2c(O)c(C=Nc3ccc(N4CCOCC4)cc3)c(=O)[nH]c2=O)cc1	3	-11	12	5.7	1	-2
O=C(NCCO)c1nsnc1NCCCl	0	-4	34	4.7	-3	2
COc1ccccc1OCCCn1cc(C(=O)C2CC2)c2ccccc21	-1	-15	2	0.6	-28	1
CCN1CC2C3CCC(C)(O3)C2C1 (stereo not drawn)	1	?	13	-0.5	-4	-1
Cc1cccc(OC(=O)N2CCOCC2)c1	2	-4	7	-0.3	-1	5

From PubChem BioAssay
